Bead autofluor: flagged as autofluorescent in microsphere protease counterscreen. compound autofluorescence counterscreen, microsphere flow cytometry; active compounds read high. fluorescence intensity (test concentration not listed). 3.1% of 360,000 active;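 active = at least 3 SD above the mean of all compounds, about 16000 in these data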;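 note: 100 nL of 1 mM stock went into each well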
* = called active by the depositor. This is a subset (hit frequency here may not be typical).

SMILES	Bead autofluor
O=C(Nc1ccc(OC(F)(F)F)cc1)N1CCc2nc(NCc3cccc(Oc4ccccc4)c3)ncc2C1	4378
CC(C)c1ccc([C@@H]2O[C@H](CCc3ccccc3)Cc3[nH][nH]c(=O)c32)cc1	6174
Cc1ccc(S(=O)(=O)N2C[C@H]3C(=O)C[C@@H](c4ccccc4)N(S(=O)(=O)c4ccc(C)cc4)[C@H]3C[C@H]2c2cccc3ccccc23)cc1	6751
CC(C)N(Cc1nnc(-c2ccccc2Cl)o1)C(=O)COc1cccc(Cl)c1	3852
CSc1ncnc2c1ncn2CCCN(C)CCc1ccccn1	2828
N#CC(=Nc1cccc(F)c1)C1=C(O)c2ccccc2C1=O	5879
COC(=O)C(=Cc1ccncc1)c1cccc2ccccc12	3811
O=C(O)c1ccc(-c2nn3c(=O)cc(N4CCNCC4)nc3s2)cc1	3455
NC(=O)c1ccc(Nc2nc(C(N)COCc3ccccc3)cs2)cc1 (centres undefined)	3866
CC1(CCc2ccccc2)NC(=O)N(CC(=O)N2CCc3ccccc32)C1=O (centres undefined)	3036
CC1CN2C(=O)C1(c1ccccc1)C(=O)NC2=S (centres undefined)	3569
COc1cc(OC)cc(C2=Cc3ccccc3C(CC(=O)c3ccco3)N2c2ccc(-c3cccnc3)cc2)c1 (centres undefined)	5346
CC1NC(=O)c2cc3ccccc3cc2-n2c1nc1cc(F)ccc1c2=O (centres undefined)	3698
Nc1nc2c(ncn2[C@@H]2O[C@H](CNS(=O)(=O)N3CCCC3)[C@@H](O)[C@H]2O)c(=O)[nH]1	5692
CN(N=Cc1ccc([N+](=O)[O-])cc1)c1ccccn1	4035
O=C(CSc1nc2scc(-c3cccs3)c2c(=O)n1CCc1ccccc1)N1CCCC1	4260
N#CCCN(C(=S)Nc1ccc(Cl)c(Cl)c1)C1CCCCC1	3219
CCC(C)C(NC(=O)c1ccccc1)C(=O)N1CCN(C(=O)c2ccccc2)CC1 (centres undefined)	3864
CCOc1ccc(NS(=O)(=O)c2ccc(Cl)c(N=Nc3c(O)[nH]c(=S)[nH]c3=O)c2)cc1Br	3904
Cc1ccccc1N=C(c1ccccc1)C1C(=O)c2ccccc2C1=O	5509
CC(C)c1cc(C(C)C)c(S(=O)(=O)NC(c2ccccn2)C23CC2C3)c(C(C)C)c1 (centres undefined)	4325
CCC1(C2C=COC=C2)NC(=O)NC1=O (centres undefined)	5214
CCCC(=O)N1CCC1(C)C(=O)NS(=O)(=O)c1ccc(F)cc1F (centres undefined)	2958
CCOC(=O)C(=O)N(C)c1c(CC)nc2c(OCc3ccc(OC(F)F)cc3)cccn12	3691
O=C(NCc1ccccc1Cl)[C@H]1CCCN1C(=O)[C@H]1CCCN1C(=O)c1cccc2ccccc12	5172

In the list so far, 3 contain two or more sulfur atoms.
SMILES	Bead autofluor
Cc1ccc(S(=O)(=O)N2C[C@H]3C(=O)C[C@@H](c4ccccc4)N(S(=O)(=O)c4ccc(C)cc4)[C@H]3C[C@H]2c2cccc3ccccc23)cc1	6751
O=C(CSc1nc2scc(-c3cccs3)c2c(=O)n1CCc1ccccc1)N1CCCC1	4260
CCOc1ccc(NS(=O)(=O)c2ccc(Cl)c(N=Nc3c(O)[nH]c(=S)[nH]c3=O)c2)cc1Br	3904

(list continues)
SMILES	Bead autofluor
CC(C)C[C@@H](CN1CCC[C@@H]1CN1C(=S)NC[C@@H]1Cc1ccccc1)N1C[C@H](Cc2ccc(O)cc2)N(CCc2ccccc2)C1=S	6527
Cc1ccc(CNC(=O)CN2NS(=O)(=O)c3ccccc3C2=O)cc1	4107
COc1ccc(C(C)(O)c2nc(-c3cccc(C(C)C)c3)cs2)cc1 (centres undefined)	3655
COc1cc(NC(=O)C2(C)CCN2C(=O)C(C)C)cc(OC)c1OC (centres undefined)	3611
N#CC(=Cc1ccc(-c2ccccc2)cc1)C(=O)c1ccccc1	5694
COc1ccccc1NC(=O)c1oc2ccccc2c1C	3803
CN(C)CCCOc1ccc(-c2ccc3nncn3c2)cn1	2813
COc1ccc([C@H]2CC(=O)C[C@@H](CCn3cc(-c4ccc(F)cc4)nn3)O2)cc1	5900
O=C1O[C@@H](c2ccccc2)C[C@@H](O)C(=O)CCCc2ccccc21	5898
CC(C)C[C@H]1CN([C@@H](Cc2ccccc2)CN2CCC[C@@H]2CN2C(=O)C(=O)NC[C@@H]2Cc2ccccc2)C(=O)C(=O)N1CC1CCCCC1	5423
C[C@H]1CN([C@@H](C)CO)C(=O)c2cc(Br)cnc2O[C@H]1CN(C)C(=O)Cc1ccccn1	2808
CC(NC(=O)c1cccc2c1Oc1ccccc1S2)C(=O)O (centres undefined)	5596
CN(Cc1ccc(Cl)cc1Cl)C(=O)Cc1ccc(S(=O)(=O)N2CCOCC2)s1	2862
CC(C)NC(=O)C1Cc2c(-c3ccc(Cl)cc3)ccnc2O1 (centres undefined)	2834
CC(C)C[C@H]1CNC(=S)N1C[C@H]1CCCN1C[C@H](Cc1ccccc1)N1C[C@H](Cc2ccc(O)cc2)N(CCc2ccccc2)C1=S	6050
CNC(=O)C[C@@H]1C(=O)N(c2ccc(Br)cc2)CC1(C)C	2900
CC(=O)c1ccc(OCC(=O)OCC(=O)c2ccc(S(=O)(=O)N3CCCCC3)cc2)cc1	3620
CCCn1c(=O)c(C(=O)Nc2ccccc2N)c(O)c2ccccc21	3455
CC(=O)Nc1cccc(Oc2nc(NCC3CC3)nc3ccsc23)c1	3715
COc1ccc(-c2cc3nc(-c4ccccc4)cc(N4CCN(C(C)=O)CC4)n3n2)cc1	3873
O=C(COc1ccc(S(=O)(=O)N2CCCC2)cc1[N+](=O)[O-])N1CCCCC1	3804
c1ccc(CNc2ncn[nH]2)cc1	2912
CCN(CC)C(=O)C(c1ccccc1)S(=O)(=O)N1CCOCC1 (centres undefined)	3072
C[C@@H](O)CNC(=O)c1[nH]cnc1C(=O)N[C@H](C)c1ccccc1	3270
CC(=O)Nc1ccc(S(=O)(=O)CC(=O)CS(=O)(=O)c2ccc(NC(C)=O)cc2)cc1	3028

A draw from above in order of formula weight, largest number first:
SMILES	Bead autofluor
CC(C)C[C@@H](CN1CCC[C@@H]1CN1C(=S)NC[C@@H]1Cc1ccccc1)N1C[C@H](Cc2ccc(O)cc2)N(CCc2ccccc2)C1=S	6527
C[C@H]1CN([C@@H](C)CO)C(=O)c2cc(Br)cnc2O[C@H]1CN(C)C(=O)Cc1ccccn1	2808
CN(Cc1ccc(Cl)cc1Cl)C(=O)Cc1ccc(S(=O)(=O)N2CCOCC2)s1	2862
Cc1ccc(CNC(=O)CN2NS(=O)(=O)c3ccccc3C2=O)cc1	4107
CC(C)NC(=O)C1Cc2c(-c3ccc(Cl)cc3)ccnc2O1 (centres undefined)	2834
C[C@@H](O)CNC(=O)c1[nH]cnc1C(=O)N[C@H](C)c1ccccc1	3270

Going on with the list:
SMILES	Bead autofluor
CC1(C(=O)NS(=O)(=O)Cc2ccccc2)CCN1C(=O)C/C=C/c1ccccc1 (centres undefined)	4187
CC(C)C1C(=O)N(Cc2cn(CCC3OCCCO3)nn2)CCS(=O)(=O)N1Cc1ccc(-c2cccc(CO)c2)cc1 (centres undefined)	3776
C[C@H](CO)N1C[C@H](C)[C@H](CN(C)C(=O)c2cc(-c3ccccc3)on2)OCc2cnnn2CCCC1=O	3903
Clc1ccc(-c2nc(CSc3ccccn3)cs2)cc1	4154
N#CC1(Nc2ccc3c4c(cccc24)CC3)CCCCC1	3056
CC(C)NC(=O)Nc1ccc2c(c1)C(=O)N([C@H](C)CO)C[C@H](C)[C@@H](CN(C)S(=O)(=O)c1ccccc1)OCCCC[C@@H](C)O2	3893
CC(C)C(=O)N1CCC1(C)C(=O)Nc1ccc2[nH]ccc2c1 (centres undefined)	3863
Cn1c(=O)c2cc(NC(=O)NCCc3cccs3)ccc2n1C/C=C/c1ccccc1	3053
C[C@@H]1CN([C@H](C)CO)C(=O)CCCn2nncc2CO[C@@H]1CN(C)S(=O)(=O)c1ccccc1C#N	2924
C[C@@H]1CN([C@@H](C)CO)C(=O)c2cc(Br)cnc2O[C@@H]1CN(C)C(=O)CN(C)C	2968
O=C(/C=C/c1ccccc1)N1Cc2ccccc2-n2nncc2C1	3697
CCOC1=C2[C@H](c3ccccc3Cl)N(S(=O)(=O)c3ccc(C)cc3)C[C@H]2C(C#N)(C#N)C(C#N)(C#N)C1	6322
Cc1cc(C(=O)CCC(=O)Nc2ccc(C(N)=O)cc2)c(C)s1	3844
Cn1ccc2c(/C=C/c3ccc(F)cc3)cc3c(c21)C1CCC3O1 (centres undefined)	4081
COc1cc(C(=O)Nc2ccc(C(=O)c3ccncc3)cc2)cc(OC)c1OC	3745
OCCc1ccc(NCCc2cccs2)cc1	5176
COC(=O)C(NC(=O)c1ccccc1)C(C)(C)SCc1ccccc1 (centres undefined)	4265
C#CCN(C[C@@H]1[C@@H](OC(=O)NC2CCCC2)[C@@H](OC(=O)NC2CCCC2)Cn2c(=O)ccc(=O)n21)S(=O)(=O)c1ccc(C)cc1	3769
Oc1ccccc1-c1cnc2cccnn12	3819
N=c1ncn(C2OC(CO)C(O)C2O)c2nc(Br)[nH]c12 (centres undefined)	3612
Cc1ccc(CNC(=O)c2[nH]c(C(F)(F)F)nc2-c2ccccc2)cc1	6037
CCCNC(=O)C1(C)CCCN(C(=O)c2cc(C)nn2C(C)(C)C)C1 (centres undefined)	3833
O=C(OCc1ccccc1)N1C=CCC[C@@H]1c1c(Cl)cccc1Br	5939
CC(C)c1ccc(NC(=O)N2CCc3nc(NCc4cccc(Oc5ccccc5)c4)ncc3C2)cc1	3897
COc1cc(OC)cc(C2=Cc3ccc(OC)cc3C(CC(C)=O)N2c2ccc(C#CC3(O)CCCCC3)cc2)c1 (centres undefined)	4093

Going on with the list.
SMILES	Bead autofluor
CCc1nc2ccc(C(=O)NCCCn3ccnc3)cn2c1N(CC)CCN(C)C	2831
Cc1cccnc1C(c1ccc(F)cc1)N(C)C(=O)C1CCN(CCCOc2ccc(F)cc2)CC1 (centres undefined)	3799
CCCC(=O)N1CCC1(C)C(=O)Nc1ccc(OC(F)F)cc1 (centres undefined)	3726
CC(=O)Nc1ccc(CNc2nc3cc(-c4cccc(C(F)(F)F)c4)sc3c(=O)n2C)cc1	3966
OCCCCCCNc1ccc(CCO)cc1	6038
CCCCNC(=O)C1c2ccccc2OCC(=O)N1C1CC1 (centres undefined)	5002
COC(=O)c1ccc2c(c1)S(=O)(=O)NC2C (centres undefined)	5733
NS(=O)(=O)c1cccc(C(=O)N2CCCc3ccccc32)c1	3679
CC1=C(C(=O)N(C)C)CC(CC(=O)NCCN2CCOCC2)C(=O)N1CCCN1CCCC1=O (centres undefined)	5766
O=C(NCCc1cccs1)Nc1nnc([C@H]2C[C@H](O)[C@@H](CO)O2)s1	3542
O=S(=O)(c1cc(Cl)cc(Cl)c1)N1Cc2cc(N3CCOCC3)ccc2-n2nncc2C1	4445
Cc1cccc(NC(=O)CN2C(=O)C3CC=CCC3C2=O)c1C (centres undefined)	2859
C(#CCN1CCCCC1)CN1CCCCC1	6097
O=S1(=O)CC(N2CCCC2)CN1C1CCCCC1 (centres undefined)	6147
NC(=O)/C(=C\c1ccc([N+](=O)[O-])o1)c1ccco1	5610
O=c1cnc2ccccc2n1Cc1ccccc1	3428
Cc1nc2ccc(C(=O)N3CCN(C(=O)c4ccco4)CC3)cn2c1N(C)C(=O)CCc1ccccc1	3729
CC(C)COC(=O)N1CCCC(c2cc(C(=O)Nc3ccccc3Cl)no2)C1 (centres undefined)	3408
Cc1cc2nc[nH]c(=O)n2n1	3921
Cn1ncc2cc3c(Nc4ccc(Cl)cc4)cccc3nc21	5208
COc1ncnc2c1ncn2CCCN1CCN(Cc2cccc3ccccc23)CC1	4067
O=c1cc(CN2CCCCC2)c2c(ccc3ccccc32)o1	6263
CC1(C(=O)Nc2cccc3cccnc23)CCN1Cc1ccc(-c2ccccc2)o1 (centres undefined)	4000
CC1(C(=O)NS(=O)(=O)c2ccc(C#N)cc2)CCN1C(=O)c1cccc2ccccc12 (centres undefined)	3964
COc1ccc(-c2ccc(C(=O)NCc3ccc(N(C)C)cc3)c3occc23)c(C)c1	3965

Later entries
SMILES	Bead autofluor
COc1cc(CN2C[C@@H](CO)O[C@@H](n3cnc4c(NCCCO)ncnc43)C2)cc(OC)c1OC	3698
COc1cc(-c2cnc3c(NC=O)cc(-c4ccsc4)cn23)cc(OC)c1OC	3944
FC(F)(F)c1ccccc1Cc1c(-c2cccc(Br)c2)nc2ccc(Br)cn12	5274
CCOC(=O)C(CC1=CS(=O)(=O)c2ccc(Cl)cc21)(NC(C)=O)C(=O)OCC	3872
Cn1c(NCCc2ccncc2)nc2cc(-c3cccc(Cl)c3)sc2c1=O	3469
C[C@@H]1CN([C@H](C)CO)C(=O)CCCn2cc(nn2)CO[C@H]1CN(C)C(=O)Nc1ccc(F)cc1	3791
CC(C)Cn1c(SCC(=O)NC2CC2)nc2ccc(Cl)cc2c1=O	3768
CCOC(=O)C(C)Oc1cccc2c(=O)n(CC(=O)Nc3ccc(OC)cc3)ccc12 (centres undefined)	3394
CCc1ccc([C@H]2[C@@H]3C(=O)C[C@@H]4C(=O)NC(=O)[C@@H]4[C@@H]3CN2S(=O)(=O)c2ccc(C)cc2)cc1	4212
Cc1c(C(=O)NCc2ccc3c(c2)OCO3)sc(=O)n1Cc1cccc(F)c1	5056
O=C(Nc1nnc([C@@H]2C[C@H](O)[C@@H](CO)O2)s1)Nc1cccc(Cl)c1Cl	3694
CC(C)NC(=O)Nc1ccc2c(c1)C(=O)N([C@@H](C)CO)C[C@@H](C)[C@H](CN(C)Cc1ccccc1)OCCCC[C@H](C)O2	3931
Cn1c(=O)c2c(-c3ccccc3)n(-c3ccccc3Br)cc2n(C)c1=O	6008
CCCCN(C(=O)CC1CCCCC1)c1c(N)n(CCCC)c(=O)[nH]c1=O	4162
CCOC(=O)C1(C(=O)OCC)C(C)CC(=O)N1c1ccccc1OC (centres undefined)	3419
CCOC(=O)[C@]12CCCC=C1N(Cc1ccc(Cl)cc1Cl)C(=O)[C@H](CC(=O)N1CCCCC1)C2	6001
CC(=O)Nc1cncc(-c2cnn(CC(C)C)c2)n1	2928

Rewritten bar-delimited: entries from further up.
structure | Bead autofluor
Cc1c(C(=O)NCc2ccc3c(c2)OCO3)sc(=O)n1Cc1cccc(F)c1 | 5056
O=C(Nc1nnc([C@@H]2C[C@H](O)[C@@H](CO)O2)s1)Nc1cccc(Cl)c1Cl | 3694
CC(C)NC(=O)Nc1ccc2c(c1)C(=O)N([C@@H](C)CO)C[C@@H](C)[C@H](CN(C)Cc1ccccc1)OCCCC[C@H](C)O2 | 3931

Screens: PubChem BioAssay, NMMLSC
